Source: PubChem
gsp antag = antagonists of gsp mutant (McCune-Albright syndrome) | gsp-mutant cells, cAMP HTRF, 30 min; control for the full effect not named in the record | Potency, µM (top dose mostly 76.9 µM), for inactives: at the top dose activity change, negative = inhibition, most hits filed as inhibitors | hit rate 0.4% among 340,000 | AID 624288; active = falling curve of any shape with a large fitted effect; inconclusive = falling curve, mostly with a smaller effect; inactive = flat or rising curve; cell line not stated here;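 note: intracellular cAMP measured with PDE inhibitor Ro 20-1724 present during compound exposure; potency is the fitted concentration of half-maximal effect; % is set by controls: 0 for no effect and ±100 for the full control effect; nearly all actives have a fitted effect of over 65% in size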
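HTRF cAMP read-out (cAMP-d2 plus anti-cAMP antibody-K in lysis buffer, 30 min RT). Before lysis, cells are exposed to compounds with […] for 30 min at 37C in DPBS containing Ca/Mg, BSA and Tween 20.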
TRPV1 potentiator = potentiators of human vanilloid receptor 1 (TRPV1) | Q8NER1 | TRPV1-expressing cells, Fluo-8 calcium influx, capsaicin EC20 potentiation; host cell line not named in the record; control for the full effect not named in the record | potentiation, % at 8.33 µM | hit rate 0.02% among 320,000; active means potentiation above 80%; inconclusive means 30% to 80%; inactive means below 30%; note: 0% is about no effect
Target sequence (Q8NER1 whole entry, looked up): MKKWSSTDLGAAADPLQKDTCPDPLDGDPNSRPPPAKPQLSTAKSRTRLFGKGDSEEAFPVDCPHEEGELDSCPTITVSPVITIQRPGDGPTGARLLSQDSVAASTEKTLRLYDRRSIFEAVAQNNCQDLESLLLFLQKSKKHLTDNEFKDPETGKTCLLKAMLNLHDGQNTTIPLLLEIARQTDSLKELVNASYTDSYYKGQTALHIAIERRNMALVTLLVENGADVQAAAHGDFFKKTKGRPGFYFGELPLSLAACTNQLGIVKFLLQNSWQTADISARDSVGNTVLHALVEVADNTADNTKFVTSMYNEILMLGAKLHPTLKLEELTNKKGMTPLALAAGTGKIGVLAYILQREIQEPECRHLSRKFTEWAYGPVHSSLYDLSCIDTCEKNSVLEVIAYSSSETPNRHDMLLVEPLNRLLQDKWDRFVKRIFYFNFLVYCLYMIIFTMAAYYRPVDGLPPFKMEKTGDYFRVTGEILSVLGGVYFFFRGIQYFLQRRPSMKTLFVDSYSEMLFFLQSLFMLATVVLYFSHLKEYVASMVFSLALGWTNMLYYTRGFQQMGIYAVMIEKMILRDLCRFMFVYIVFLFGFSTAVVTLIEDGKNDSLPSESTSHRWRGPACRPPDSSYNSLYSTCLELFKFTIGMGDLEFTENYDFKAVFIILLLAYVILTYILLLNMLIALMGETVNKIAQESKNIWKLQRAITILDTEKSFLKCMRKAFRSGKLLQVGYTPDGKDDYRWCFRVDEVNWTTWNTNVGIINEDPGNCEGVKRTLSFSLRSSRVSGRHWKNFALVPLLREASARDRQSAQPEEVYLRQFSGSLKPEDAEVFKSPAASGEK
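Cells expressing TRPV1 were dye-loaded with Fluo-8 and read kinetically: 10 s baseline, 3 min after compound (agonist portion), then 2 min after EC20 capsaicin (allosteric enhancer portion). Calcium-bound dye fluorescence at 480/520 nm.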
Menin MLL FP FL = displaces fluorescein MLL peptide from human menin. Fluorescence polarization, fluorescein-MLL peptide displacement from menin. 290,000 tested, under 10 active. FP activity change, % at 61.4 µM. AID 1766; inconclusive = falling polarisation curve, or a change in total fluorescence; inactive = total fluorescence flat and polarisation flat or rising; no compound was filed as active; the % refers to the polarisation; negative = inhibition;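 note: % of control where 0% means no effect; inhibitors lower the polarisation; unlabelled MLL peptide was the positive control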
Sfp PPTase inh = Sfp phosphopantetheinyl transferase inhibition | hit rate 3.5% among 310,000 | Biochemical Sfp PPTase activity, qHTS | Q9F4F7 | Potency, µM, without a hit: max response, negative = inhibition, actives largely listed as inhibitors | AID 1490; active = well fitted inhibition curve with a large enough effect; inconclusive = small, poorly fitted or top-dose-only effect, or another doubt; inactive = no such curve, though single readings can be large or run the other way;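 note: the enzyme is Sfp with the accession as filed and its product quenches rhodamine fluorescence; potency is the fitted concentration of half-maximal effect; 0% = enzyme reaction without inhibitor and -100% = no enzyme wells; top concentration of the series not given in the record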
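Fluorescence-quenching assay: 15 nM Sfp-PPTase preincubated 15 min at room temperature with compound, then 5 uM rhodamine-CoA and 12.5 uM BHQ-2-labelled YbbR peptide added. Fluorescence (ex 525/em 598 nm) read at start and after 30 min; difference gives rate.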
ClpP mod = qHTS Assay for Activators of ClpP. Potency, µM (titrated, usually from 57.5 µM), without a hit: at the top dose activity change, negative = active. ATP-dependent Clp protease proteolytic subunit (Bacillus subtilis (strain 168)), P80244. purified B. subtilis ClpP, FRET peptide cleavage, 20 min. AID 651965, 2013. hit rate 1.9% among 340,000; active = well fitted falling curve with a large enough effect; inconclusive = small, poorly fitted or top-dose-only effect; inactive = no such curve, though single readings can be large or run the other way; note: potency is the fitted concentration of half-maximal effect; the source files actives as falling curves though it sought activators and does not explain the sign; nearly all actives have a fitted effect of over 65% in size; many hits overshoot -100%
Target sequence (P80244 whole entry, looked up): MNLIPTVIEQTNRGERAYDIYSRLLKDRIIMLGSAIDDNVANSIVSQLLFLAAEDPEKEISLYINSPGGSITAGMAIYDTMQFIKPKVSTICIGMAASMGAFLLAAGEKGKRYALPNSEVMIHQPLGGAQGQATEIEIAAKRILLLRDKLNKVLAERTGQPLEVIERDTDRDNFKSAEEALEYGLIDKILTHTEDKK
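Purified B. subtilis ClpP, 10 microg/mL final in Tris/HCl pH8 with KCl, BSA, glycerol and Tween-20, cleaved an Abz/nitrotyrosine-quenched decapeptide. Fluorescence (ex 320, em 430) was read at 0 and 20 min at room temperature. Delta was normalized to 5.8 microM ADEP and DMSO/no-enzyme controls.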
gsp ag = activates gsp, the McCune-Albright syndrome mutation. gsp mutant cells, cAMP HTRF, 30 min; control for the full effect not named in the record. Potency, µM (doses to about 76.9 µM), for inactives: at the highest dose activation (cAMP increase), hits mostly activators. hit rate 0.13% among 340,000. AID 624287; active = well fitted activation curve with a large enough effect; inconclusive = small, poorly fitted or top-dose-only effect, or another doubt; inactive = no such curve, though single readings can be large or run the other way; cell line not stated here;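 note: phosphodiesterase inhibitor Ro 20-1724 added with compounds to block cAMP breakdown; potency is the fitted concentration of half-maximal effect; nearly all actives have a fitted effect of over 60% in size; about a fifth of the inactives were tested at one dose only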
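Cells stably selected in G418 were plated at 2000/well, grown 16-24 hr, then given compounds in DMSO with the PDE inhibitor […] (300 uM solution added) for 30 min at 37C; cAMP was read by HTRF.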
TRPML1 inh = blocks the human TRPML1 channel | Q9GZU1 | TRPML1-inducible cells, Ca2+ dye fluorescence, FDSS; stronger effect = lower value; inhibition of EC80 agonist-evoked calcium signal | activity change, negative = inhibition, % (concentration not given with the values) | hit rate 0.02% among 390,000 | AID 624415; in the data active means activity change below about -50%; inconclusive means about -30% to -50%; inactive means above about -30%;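 note: stimulus is agonist 54-4 at its EC80 concentration; % is set by controls: 0 for no effect and ±100 for the full control effect; compound concentration not given in the record; the text of the record puts the active cut at -80%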
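Tet-induced TRPML1-DL cells loaded with Ca8 no-wash calcium dye were read kinetically on FDSS. Compound addition was followed by EC80 agonist 54-4 (4 uM final); inhibition was read over 110 s.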
An asterisk follows results filed as active; u = inconclusive; x = not tested or not shown; [ ] = remark or other dose. No enrichment for hits; 4.9% or so of the library scored in one or more.

SMILES	gsp antag	TRPV1 potentiator	Menin MLL FP FL	Sfp PPTase inh	ClpP mod	gsp ag	TRPML1 inh
CC(C)c1[nH]nc2c1C(c1cccnc1)C(C#N)=C(N)O2 (centres undefined)	-18%	-4	0.6	17%	-0.7%	7%	-7
Brc1csc2ncccc12	-6%	-7	0.4	10%	0.2%	2%[15.4 µM]	-1
CCOc1ccc(CCN2C(=O)C(=O)N([C@@H](CC(C)C)CN3CCC[C@@H]3CN3C(=O)C(=O)NC[C@@H]3Cc3ccccc3)C[C@@H]2CC(C)C)cc1	u	x	x	x	1.8%	x	-18
COc1ccccc1NC(=O)CSc1nc(N)c(C#N)cc1C#N	18%	-5	u	1%	x	u	19
c1ccc(Cc2nnc3n2CCCCC3)cc1	7%	0	0.6	7%	0.9%	-38%	-8
CCCCN=C1CC(C)(C)CC(=O)/C1=C(/O)CCCN1C(=O)c2ccccc2C1=O	1%	20	-3.1	1%	-0.2%	-1%[15.4 µM]	18
O=C(CSc1nc2ccccc2[nH]1)NCCCn1ccnc1	10%	0	-4.1	0%	-1.7%	5%	-5
CN(C)c1cccc(C(=O)Nc2cccc(F)c2)c1	-13%	-16	-0.3	-14%	-0.5%	-26%	10
CCCOc1ccc(C(=O)c2nc3c(n2O)CCCCC3)cc1	-11%	28	1.1	-7%	0.2%	-44%[inhibitor]	-2
CC(=O)N1CCN(S(=O)(=O)c2cccc(C(=O)OCC(=O)N(CCC#N)c3ccc(F)cc3)c2)CC1	2%	2	x	x	2.2%	1%	-7
CCOc1ccc(S(=O)(=O)NNS(=O)(=O)c2ccc(C)cc2C)cc1	-2%	-6	1.6	79µM*	x	-11%[15.4 µM]	12
O=C(CN1C(=O)COc2ccc(Cl)cc21)N1CCCCC1	1%	-1	0.2	8%	-2.9%	1%	-6
CN=C1S/C(=C\c2ccc(N3CCOCC3)cc2C)C(=O)N1C	9%	-24	10	3%	2.7%	-15%	4
Cc1ccc(NS(=O)(=O)c2ccc(NC(=O)C3CC3)cc2)cc1C	-8%	9	0.1	2%	0.4%	22%	44
CCOC(=O)Cn1c(=N)n(CCOc2cccc(C)c2)c2ccccc21	12%	-21	-0.1	3%	-0.3%	-36%[inhibitor]	-2
O=C(COC(=O)C1CC(O)CN1S(=O)(=O)c1ccc(Cl)cc1)c1ccccc1 (centres undefined)	8%	10	1.0	u	-0.3%	-14%	8
COc1ccc(N2CCN(CC(O)COc3ccc4c(c3)CCC4)CC2)cc1 (centres undefined)	3%	-2	1.1	-11%	-2.9%	25%	-1
CC(Oc1ccc(-c2nnco2)cc1)C(=O)N1CCOCC1 (centres undefined)	11%	5	x	x	1.7%	-6%[15.4 µM]	-3
Cc1ccc(N(CC(=O)NC(C)(C)C)C(=O)CNC(=O)c2cccs2)cc1	-7%	0	-1.8	4%	x	-9%	-8
O=C(COC(=O)c1c(F)cccc1F)NC(=O)NCc1ccccc1	x	x	x	x	0.9%	-45%[inhibitor]	-10
C=CC(=O)Nc1cccc(Nc2nc(N[C@H]3CC[C@H](N(C)C)CC3)nc3c2ncn3C(C)C)c1	9%	x	x	x	-4.5%	x	-4
O=C1CC(c2cccc(F)c2)C2=C(CCCC2=O)N1 (centres undefined)	9%	1	2.7	20%	-7.6%	-4%	-7
C=C(C)c1cccc(C(C)(C)NC(=O)NNC(=O)c2ccccc2O)c1	5%	0	-8.7	8%	-1.8%	-4%[15.4 µM]	2
O=C(CSc1nnc(COc2cccc3cccnc23)o1)N1CCN(C(=O)c2ccco2)CC1	-1%	-2	1.4	25%	-31%	-44%[inhibitor]	-6
COc1ccc(C(=O)NCCC2=CCCCC2)cc1OC1CCN(C(C)C)CC1	1%	14	0.6	-4%	x	-1%	0
Further records:
SMILES	gsp antag	TRPV1 potentiator	Menin MLL FP FL	Sfp PPTase inh	ClpP mod	gsp ag	TRPML1 inh
COc1ccc(-c2nc(NC(=O)CSc3nnc(C)s3)ns2)cc1	5%	0	-0.8	-10%	18µM*	15%	-8
COC(=O)c1c(NC(=O)c2ccco2)sc2c1CC(C)(C)NC2(C)C	-12%	4	x	0%	-4.5%	1%[15.4 µM]	-15
Cc1cnc(C(=O)Nc2ccc(N3CCN(C(=O)OC(C)(C)C)CC3)cc2)cn1	4%	-17	-1.6	8%	0.1%	0%	11
COC(=O)/C=C/c1oc2ccccc2c1C	5%	0	3.6	2%	x	-22%	18
O=C(C1CC1c1ccccc1)N1CCN(c2cccc(Cl)c2)CC1 (centres undefined)	-25%	-2	u	2%	-2.0%	0%	15
Cc1cc(C(=O)CN2C(=O)C(=O)N(CCC3=CCCCC3)C2=O)c(C)n1C	-18%	x	x	x	1.7%	-7%	-6
O=C(Nc1cc(S(=O)(=O)N2CCOCC2)ccc1N1CCCC1)c1ccccc1C(F)(F)F	-2%	x	x	x	0.3%	-8%	14
CCN(CC)S(=O)(=O)c1ccc(-c2nnc(SCC(=O)Nc3ccc4c(c3)OCO4)o2)cc1	-9%	0	0.4	17%	0.3%	-3%	-2
COc1ccc(C(=O)C2CCCN(C3Cc4ccccc4C3)C2)cc1OC (centres undefined)	8%	9	-1.9	u	x	-2%[15.4 µM]	18
O=C(c1coc(=O)c2ccccc12)N1CCN(Cc2ccccc2)CC1	-10%	x	-0.6	9%	-5.3%	26%	1
O=c1c2c(-c3ccc(Cl)cc3)csc2ncn1/N=C/c1cccc([N+](=O)[O-])c1O	-26%	2	7.2	-6%	-0.7%	-57%[inhibitor]	-12
COC(=O)Nc1cc(C)n(-c2ccccc2)n1	3%	-1	1.7	16%	0.5%	0%[15.4 µM]	-6
CSC1=NCCN1C(=O)c1c(F)cccc1Cl	-7%	4	2.7	8%	-1.7%	0%	16
N#C/C(=C\c1cn(CC(=O)N2CCCC2)c2ccccc12)C(=O)NCc1ccc2c(c1)OCO2	-19%	12	6.8	-19%	-1.1%	-3%[15.4 µM]	29
COc1cc(OC)c2ccc(=O)oc2c1C(CC(=O)N1CCCCC1)c1ccc2c(c1)OCO2 (centres undefined)	x	x	12	-28%	x	x	-15
COC(=O)c1sc(-c2ccc(Cl)cc2)cc1NC(=O)c1ccccc1C(=O)O	-24%	-9	1.8	11%	x	27%[15.4 µM]	6
Cc1ccc(-c2cc(-c3ccccc3[N+](=O)[O-])[nH]n2)c(O)c1	u	-5	3.3	-6%	-0.8%	-62%[inhibitor]	3
CCN(CC(=O)NCc1ccc(F)cc1)C(=O)C1CC1C (centres undefined)	17%	1	6.7	0%	0.9%	-10%[15.4 µM]	-15
O=C(O)c1ccc(NC(=S)NCc2ccccc2)cc1	11%	0	1.7	25%	x	-8%	6
Cc1cccc(N2CCN(CC(=O)Nc3ccccc3[N+](=O)[O-])CC2)c1C	-9%	1	11	0%	-2.7%	-51%[inhibitor]	16
NC(=O)c1ccc(NC(=O)c2ccc3c(c2)CCN3S(=O)(=O)c2ccccc2)cc1	-1%	-16	x	4%	-0.3%	24%	10
O=C(c1cn(-c2ccccc2)nc1-c1ccncc1)N1CCCCC1	-13%	1	0.0	7%	u	-19%	3
Cc1oc(-c2cccc3ccccc23)nc1CN1CCN(c2ncnc3ccccc23)CC1	x	6	6.0	-28%	x	2%[15.4 µM]	2
Cc1ccccc1-n1c(SCC(=O)N2CCN(c3ccccn3)CC2)nnc1N1CCOCC1	0%	u	x	x	58%	15%[15.4 µM]	13
O=C(Nc1nccs1)c1ccc(S(=O)(=O)N2CCCCC2)cc1	-5%	-6	2.5	6%	0.9%	-1%	-2
(cont.)
SMILES	gsp antag	TRPV1 potentiator	Menin MLL FP FL	Sfp PPTase inh	ClpP mod	gsp ag	TRPML1 inh
Cc1ccc(CNC(=O)c2cc3c(s2)CN(Cc2ccccc2)C3)cc1	11%	-11	8.2	1%	x	u	-2
O=C(NC(=S)N1CCCc2ccccc21)c1ccco1	2%	-4	0.7	u	x	-2%[15.4 µM]	11
Cc1cccc(NC(=O)CSc2nnnn2C2CCCC2)c1	-9%	-14	-14	7%	x	-1%	-2
CC(C)OCCCn1c(SC(C)C(=O)NC2CC2)nc2ccccc2c1=O (centres undefined)	-18%	22	x	x	-1.1%	-2%	0
CCOC(=O)C1=CN(Cc2ccco2)S(=O)(=O)N(C)C1c1ccc(F)c(Cl)c1 (centres undefined)	-6%	x	x	x	0.3%	x	-6
C/C(=N\NC(=O)c1ccc(O)cc1)c1ccc(NC(=O)Cc2ccccc2)cc1	-13%	-5	x	13%	-1.8%	-39%[inhibitor]	4
Cc1nonc1C1CCCN1Cc1cn[nH]c1-c1ccc2c(c1)OCO2 (centres undefined)	8%	1	1.4	-3%	-0.2%	-19%	10
COc1ccc(OCCSc2nnc3sc4ccccc4n23)cc1	-28%	-21	0.2	1%	-1.9%	11%	4
CC1Cc2c([nH]c3ccccc23)C(=O)N1 (centres undefined)	12%	-28	2.5	14%	1.7%	10%[15.4 µM]	6
CCOC(=O)Cc1[nH]nc2c1C(C1C=CCCC1)C(C#N)=C(N)O2 (centres undefined)	2%	7	-1.5	17%	-4.5%	-31%[inhibitor]	0
COc1cccc(NC(=O)C2CCCO2)c1 (centres undefined)	-4%	3	0.2	9%	-0.2%	14%[15.4 µM]	-6
COC(=O)c1cc(C(=O)CC(C)C)c[nH]1	-3%	-12	-10.0	-5%	-1.0%	0%[15.4 µM]	2
O=C(CSc1nnc2ccc(-c3ccccc3)nn12)NCC1CCCO1 (centres undefined)	13%	19	1.3	17%	u	u	x
COc1ccc(C(=O)Nc2nc(C)c(C(=O)N(C)C)s2)cc1OC	9%	-3	-2.4	13%	-1.4%	5%	10
Cc1ccc(S(=O)(=O)NCCc2cc3ccc(C)c(C)c3[nH]c2=O)cc1	-8%	-1	-1.3	-11%	x	-4%	16
COc1ccc(CNC(=O)C[C@H]2C[C@H](C(=O)N3CCOCC3)[C@@]3(CCC4CCCC4)c4[nH]c5cc(-c6ccco6)ccc5c4CCN3C2=O)cc1OC	-8%	x	x	x	4.2%	x	37
